Screening results as filed in PubChem.
NPYLR7 ag: agonists of mosquito NPYLR7 receptor, primary screen, cell-based, Aedes aegypti, calcium fluorescence, mosquito biting behavior | Aedes aegypti neuropeptide Y-like receptor 7 (NPYLR7) | HEK293T NPYLR7/Galpha15, GCaMP6s calcium fluorescence | activation, % at 10 µM | 270,000 compounds, 0.15% hits | AID 1259423, 2018; in the data active = activation above about 40%;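 note: 0% = vehicle and 100% = reference agonist at the receptor; some compounds past the cut are filed as inactive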
NPYLR7 ag max-min: recorded beside NPYLR7 ag, whose call it bears; activation, %; measured here: Max-Min RFU normalised activation; some inactives read as strong as hits;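 span of the calcium signal over five minutes; 0% = vehicle and 100% = native peptide agonist; compound fluorescence can raise it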
Numbers without * were called inactive; & = joins results of further samples. The list is partial; count on the stated rates, not on these rows.

The line under a structure holds: NPYLR7 ag max-min | NPYLR7 ag
> COC(=O)COc1ccc2c(=O)c(-c3ccc4c(c3)OCCO4)c(C)oc2c1
  -10 | -6
> Cn1c(=O)c(C(=O)Nc2ccc([N+](=O)[O-])cc2)c(O)c2ccccc21
  6 | 7
> CCC1(CNCC2CCN(c3cccc(OC)c3)C2)COC1 (stereo unspecified)
  -2 | -1
> COc1cc(Cl)ccc1-n1c(CCC(=O)NCC2CCCCC2)cc2c1-c1ccccc1CC2
  -5 | -2
> CCCCC(CC)C(=O)N1CCSC1c1cccc(Cl)c1Cl (stereo unspecified)
  0 | -2
> CCCCNC(=O)C1(C)CCN1C(=O)c1ccccc1Br (stereo unspecified)
  3 | 6
> CCOC(=O)c1c[nH]n2c(=O)cc(CN3CCc4sccc4C3)nc12
  10 | 1
> CN(CCc1ccccn1)c1ncccc1CNC(=O)C1COCCO1 (stereo unspecified)
  6 | 8
> O=C(NCc1ccc(Cl)cc1)N1CCCn2cncc2C1
  2 | 4
> CCCOc1cc(C)c(Cl)cc1S(=O)(=O)N1CC(C)OC(C)C1 (stereo unspecified)
  6 | 1
> Cc1cc(C(=O)N2CCC2(C)C(=O)Nc2cc(C(C)(C)C)nn2C)nn1C (stereo unspecified)
  1 | 2
> CCN(Cc1nc(C)no1)C(=O)c1cc(-c2ccccc2Cl)oc1C
  2 | 4
> CN1C2=C(C#N)C(C(C#N)C#N)=NC2C(C)(C)c2ccccc21 (stereo unspecified)
  14 | 10
> O=C(CCC(=O)N1CCOc2ccc(CN3CCN(c4ncccn4)CC3)cc2C1)c1ccccc1
  4 | 15
> Cc1nnc(-c2cccc(NC(=O)C3CCN(C(=O)C4CCCCO4)CC3)c2)s1 (stereo unspecified)
  5&-3 | 6&-1
> Cc1ccccc1NC(=O)c1ccc(C)c(S(N)(=O)=O)c1
  2 | 1
> CN(C)CCOc1ccc(-c2nc(-c3ccc4c(c3)CC/C4=N/O)c(-c3ccncc3)[nH]2)cc1
  -10 | -4
> COc1ccc(N2CCN(c3cc(C)nc(-n4cc([N+](=O)[O-])cn4)n3)CC2)cc1
  5 | 5
> CC(C)(C(=O)N1CCC1(C)C(=O)NS(=O)(=O)c1cccc(C#N)c1)c1ccccc1 (stereo unspecified)
  -11 | -4
> CCO[C@H]1[C@H](NC(=O)c2cccnc2)c2ccccc2C12CCN(C(=O)/C=C/c1cccs1)CC2
  14 | 25
> Fc1ccc(-c2cc3c(SCc4cccc(F)c4)nccn3n2)cc1
  4 | 4
> COc1ccc(CNc2nc(N3CCC[C@H]3CO)ncc2C(=O)NCc2ncccn2)cc1Cl
  -12 | -3
> CC1=C(C(=O)N(C)CCCOc2ccccc2C)C(C)NC(=O)N1 (stereo unspecified)
  -7 | -3
> O=C(Cn1cc(Cl)cn1)N1CCC2(CC1)N=C(c1ccccc1)NC2=O
  3 | 6
> CCc1nc(C)c(C(=O)NCc2cn3nc(C)sc3n2)o1
  -9 | -6
> CCCC1COCCN1C(=O)CCCS(N)(=O)=O (stereo unspecified)
  3 | 4
> CC1(NC(=O)/C=C/c2ccc(S(=O)(=O)N3CCCCCC3)cc2)CC1
  0 | 0
> CC1CCC2C(CCCN2C(=O)c2ccc(-n3ccnc3)nc2)C1 (stereo unspecified)
  -6 | -6
> Cc1ccc(S(=O)(=O)NNC(=O)Cn2nc([N+](=O)[O-])c([N+](=O)[O-])c2C)cc1
  -5 | -4
> COc1cc(/C=C/CN2CCC(C(=O)NC(c3ccc4c(c3)OCO4)c3ccccn3)CC2)ccc1OC(C)=O (stereo unspecified)
  -18 | -16

Molecules above that have a nitro group on carbon, in the order listed:
The line under a structure holds: NPYLR7 ag max-min | NPYLR7 ag
> Cn1c(=O)c(C(=O)Nc2ccc([N+](=O)[O-])cc2)c(O)c2ccccc21
  6 | 7
> COc1ccc(N2CCN(c3cc(C)nc(-n4cc([N+](=O)[O-])cn4)n3)CC2)cc1
  5 | 5
> Cc1ccc(S(=O)(=O)NNC(=O)Cn2nc([N+](=O)[O-])c([N+](=O)[O-])c2C)cc1
  -5 | -4

In the list so far, two contain an NH in an aromatic ring.
The line under a structure holds: NPYLR7 ag max-min | NPYLR7 ag
> CCOC(=O)c1c[nH]n2c(=O)cc(CN3CCc4sccc4C3)nc12
  10 | 1
> CN(C)CCOc1ccc(-c2nc(-c3ccc4c(c3)CC/C4=N/O)c(-c3ccncc3)[nH]2)cc1
  -10 | -4

New compounds follow.
The line under a structure holds: NPYLR7 ag max-min | NPYLR7 ag
> O=C(Cc1ccccc1)N(Cc1cccnc1)c1nc2c(Cl)cccc2s1
  -4 | -17
> CCCCc1ccc(NS(=O)(=O)c2cccc(C(=O)N3CCNC(=O)C3)c2)cc1
  3 | 8
> CC1CCCC(CC(=O)OC2CCS(=O)(=O)C2)C1 (stereo unspecified)
  -2 | 2
> Cc1ccccc1NC(=O)Nc1c[nH]c2ccccc12
  -3 | 0
> O=C(Nc1ccc(N2CCC(Cc3ccccc3)CC2)c(C(=O)NCCN2CCOCC2)c1)c1cc(Cl)cc(Cl)c1
  19 | 8
> COc1cc(NCCC(=O)NC2CCCCC2)ncn1
  4 | 1
> CC12CC3CC(C)(C1)CC(C(=O)NNC(=O)c1ccccn1)(C3)C2
  8 | 13
> CCO[C@H]1COC[C@@H]1NC(=O)c1c(C)nc2sccn12
  -2 | -3
> COc1ccc(-c2cc(C(F)(F)F)n3ncc(C(=O)NC(C)C)c3n2)cc1
  4 | 3
> COC1CCN(S(=O)(=O)N2CCC(O)(c3ccc(C)cn3)CC2)CC1
  -3 | -1
> O=C(NCc1ccc(F)cc1)c1cc(C2CCCCN2S(=O)(=O)Cc2ccccc2)on1 (stereo unspecified)
  -3 | 1
> O=C(CCN1CCC(c2cccc(O)c2)CC1)NCc1cccs1
  -10 | -2
> Cc1ccccc1NC(=O)c1sc(NC(=O)C2CC2)cc1C
  3 | 6
> CC(=O)c1ccc(N2CCN(C(=O)c3cc(C)nc4c(C)cccc34)CC2)cc1
  -4 | 2
> COc1ccc(NS(=O)(=O)c2cnc[nH]2)cc1
  3 | 7
> Cc1cc(C)c(S(=O)(=O)N2CCC(c3c[nH]c4ccc(C)cc34)CC2)c(C)c1
  -5 | 1
> COCCN1CC(CNC(=O)c2cc(COc3ccc(C)c(C)c3)on2)CC1=O (stereo unspecified)
  3 | -5
> Cc1cc(=O)[nH]c(NN=Cc2ccsc2)n1
  -9 | -2
> Cc1cc(C)c(C)c(S(=O)(=O)N2CCN(CCO)CC2)c1C
  -7 | -4
> CC1(c2ccccc2)NC(=O)N(Cc2cc(Cl)c3c(c2)OCO3)C1=O (stereo unspecified)
  11 | 8
> O=C(NCc1cccnc1)c1cccc(OC2CCN(C(=O)C3CC=CCC3)CC2)c1 (stereo unspecified)
  2 | 2
> CC(C(=O)Nc1cc(F)ccc1F)N(C)Cc1cccc(F)c1 (stereo unspecified)
  5&0 | 8&0
> CCC1=NOC(CNC(=O)CCc2scnc2C)C1 (stereo unspecified)
  -3 | 2
> COc1ccc(C(=O)C2CCN(Cn3nc(-c4ccc(C)cc4)n(C)c3=S)CC2)cc1
  -6 | -7
> O=C(Nc1cccc(-c2ccc(F)cc2)c1)C1CCCN(C(=O)c2ccccc2)C1 (stereo unspecified)
  -7&3 | -6&4
> COc1cccc(NC(=O)C2(C)CCN2Cc2ccc3c(c2)OCCO3)c1 (stereo unspecified)
  -1 | 7
> Cc1ccccc1-c1nn(-c2ccc(F)cc2F)cc1CNCc1cccs1
  -7 | -5
> CN(C)C1CCN(C(=O)c2cn(Cc3c(F)cccc3F)nn2)C1 (stereo unspecified)
  1 | 1
> C=CCN1C[C@H]2COc3ccccc3[C@H]2N(C(=O)C(C)C)CCC1=O
  4 | -1
> C/C(CC(=O)Nc1ccc(Cl)cc1C)=N\NC(=O)c1ccncc1
  1 | 2

Carrying on:
The line under a structure holds: NPYLR7 ag max-min | NPYLR7 ag
> COc1ccccc1NC(=O)N1CCc2cc(OC)c(OC)cc2C1CN (stereo unspecified)
  -10 | -9
> CCOC(=O)CC1=C(C(=O)OCC)C(c2cccc(Cl)c2Cl)C(C#N)C(=N)O1 (stereo unspecified)
  -7 | -3
> Cc1nc(-c2ccccc2)sc1C(C)NC(=O)C1(c2ccc(F)cc2)CC1 (stereo unspecified)
  112 | 0
> Cc1cc(S(=O)(=O)NC2CCCCC2C)ccc1Cl (stereo unspecified)
  -1 | 1
> CCCNC(=O)c1nnc2n1CCN(C(=O)CCC1CCCC1)C2
  3 | 8
> Cc1ccc(C2c3cccn3CCCN2Cc2cccc(F)c2)cc1C (stereo unspecified)
  21 | 29
> O=C(c1ccccc1F)N(Cc1cccc(F)c1)CC1CC(c2ccc3c(c2)OCO3)=NO1 (stereo unspecified)
  30 | 25
> COC(=O)Nc1ccccc1OCc1cnc(C)s1
  -22 | -22
> COCCNC(=O)c1cc(-c2ccc(F)cc2)nc2cc(-c3ccccc3)nn12
  16 | 3
> CC(C)(C)OC(=O)N1CCC(CC(=O)N2CC(c3nc4ccccc4[nH]3)C2)CC1
  2 | 2
> CCc1ccc(CNc2nc(CCN)nc3ccccc23)nc1
  -4 | 2
> NNC(=O)C[n+]1nc(-c2ccccc2)n[nH]1
  6 | 2
> Cn1nc(-c2ccc(NC(=O)Cc3ccc(Br)cc3)cc2)ccc1=O
  -3 | 0
> Cc1csc(NC(=O)CSc2nc(=O)n(N3CCN(C)CC3)c3c2CCCC3)n1
  -13 | -4
> COc1cccc(NC(=O)C2(C)CCCN2C(=O)C(C)C)c1OC (stereo unspecified)
  -5 | -4
> CCN(CCn1cccn1)Cc1ccc2c(c1)OCCO2
  -1 | 0
> Cc1ccc(-n2nnc3c(=O)n(CC(=O)N4CCN(c5ccccc5)CC4)cnc32)cc1C
  -8 | -1
> CN(C)CCCCN(C)S(=O)(=O)c1cc2ccccc2o1
  2 | 3
> Cc1cc(C(F)(F)F)nn1CC(=O)Nc1cc(O)cc([N+](=O)[O-])c1
  -3 | -2
> C=CCOC(CN1CCN(C(=O)c2c(-c3c(Cl)cccc3Cl)noc2C)CC1)c1cccc(N2CCCC2)c1 (stereo unspecified)
  0 | 5
> COc1cc(CNC(=O)CCl)ccc1OC(F)F
  14 | 11
> CC1(C)Cc2nc(C(C)(C)C)ncc2C(NC(=O)CN2CCCCC2=O)C1 (stereo unspecified)
  3 | 3
> CCc1ccc(NC(=O)CN2C(=O)N(c3ccccc3)C3CS(=O)(=O)CC32)cc1 (stereo unspecified)
  1 | 0
> N#Cc1cccc(CN2C(=O)C3(NCCS3)c3cc(Cl)ccc32)c1 (stereo unspecified)
  33 | 26
> CN(C(=O)c1ccc2ncsc2c1)C1CCCc2ccccc21 (stereo unspecified)
  -1 | 2
> O=C(CCC1CCCN(C(=O)Cn2cccn2)C1)Nc1ccc(C(F)(F)F)cc1 (stereo unspecified)
  3 | 5
> COC(=O)C1=C(C)N(C)C(C)=C(C(=O)OC)C1c1ccc(C(=O)OC)cc1
  2 | 0
> COCCCNc1nc2nonc2nc1N(C)CCOc1ccccc1
  -9 | -7
> CNC(=O)CN1CCC(CN(C)C(C)c2cccc(C)c2)CC1 (stereo unspecified)
  3 | 4
> COc1cc(C(=O)O)sc1Br
  -5 | 10

In the list so far, these contain a tert-butyl group:
The line under a structure holds: NPYLR7 ag max-min | NPYLR7 ag
> Cc1cc(C(=O)N2CCC2(C)C(=O)Nc2cc(C(C)(C)C)nn2C)nn1C (stereo unspecified)
  1 | 2
> CC(C)(C)OC(=O)N1CCC(CC(=O)N2CC(c3nc4ccccc4[nH]3)C2)CC1
  2 | 2
> CC1(C)Cc2nc(C(C)(C)C)ncc2C(NC(=O)CN2CCCCC2=O)C1 (stereo unspecified)
  3 | 3

Next compounds follow:
The line under a structure holds: NPYLR7 ag max-min | NPYLR7 ag
> O=C(c1cc(-c2ccc([N+](=O)[O-])cc2)nn1-c1ccccc1Cl)N1CCC2(CC1)OCCO2
  0 | -7
> O=C(NCc1cccc(F)c1)C(C1CCCC1)N1CCN(C(=O)c2ccccc2Cl)CC1 (stereo unspecified)
  3 | -3
> O=C(NCCc1ccc(F)cc1)C1CC=CCC1C(=O)N1CCc2ccccc2C1 (stereo unspecified)
  -10 | -4
> CCc1n[nH]c2c1CN(C(=O)COCc1nc3ccccc3[nH]1)CC2
  3 | 20
> COc1ccc2c(c1)CCCN2C(=O)C1=NCC(=O)N(c2ccccc2)N1
  -1 | -2
> COc1ccc(-n2ccnc2CN2CCCC2c2ccccn2)cc1 (stereo unspecified)
  0 | 2
> CC(=O)c1cccc(N2C(=O)C3C(C2=O)C2(C)C=CC3(C)O2)c1 (stereo unspecified)
  -9 | -4
> CNC(=O)c1cccnc1-c1ccc(CO)cc1
  3 | 1
> COc1ccc(CCOc2nc(-c3ccc(C(F)(F)F)cc3)n(-c3cccc(NC(=O)c4cccc(F)c4)c3)n2)cc1
  11 | 25
> Cc1cc(=O)n2[nH]c(Cc3ccccc3)c(-c3cccc4ccccc34)c2n1
  -20 | -17
> Cn1c(CC2CCNCC2)nnc1SCCOc1ccc(Cl)cc1
  2 | 6
> O=C(C=Cc1ccc2c(c1)OCO2)N1CCN(c2ncccn2)CC1
  -7 | -4
> O=C(Nc1ccccn1)N1CCCC1CCc1ccccc1 (stereo unspecified)
  3 | 8
> C[C@H](C(=O)NCc1ccccc1)N1Cc2ccc(N3CCOCC3)nc2C1=O
  3 | 6
> COCCOC(=O)N1C2CCC(O)(CC2)[C@@H]1[C@@H](O)c1ccccc1
  19 | 8
> C=CCNC(=O)c1cnn2c1NC(c1cccs1)CC2C(F)(F)F (stereo unspecified)
  -2 | 9
> COc1cccc(-c2nccn2-c2ccc(-c3n[nH]c(C)n3)cc2)c1OC
  -2 | 2
> O=C(CC1C=CCC1)Nc1nc(-c2ccc3c(c2)OCO3)cs1 (stereo unspecified)
  15 | 19
> COc1ccc(CCC(=O)N2CCCC(CNC(=O)c3ccc(F)cc3)C2)cc1 (stereo unspecified)
  8&8 | 17&5
> Cc1c(C(=O)N2CCCCC2C)sc2nc(-c3cccc([N+](=O)[O-])c3)cn12 (stereo unspecified)
  -1 | 3
> Cn1cc(C(=O)N2CCCC2)c2[nH]c(=O)n(-c3ccc(Cl)cc3)c(=O)c21
  -1 | 1
